# HCMV UL50-53 inh = inhibitors of HCMV UL50-UL53 interaction, biochemical, HTRF; 190,000 tested, 0.15% active; normalized percent inhibition; inhibition, % (test concentration not listed); HCMV UL50-UL53 nuclear egress complex (human cytomegalovirus);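 active = both replicates at 50% or more, plus weaker picks with an unusually low signal ratio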;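 also: stock transfer was 100 nL into about 20 µL; 0% = negative control wells and 100% = wells with untagged competitor protein; inactives centre near -12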
# Sa growth inh = S. aureus growth inhibition at 42 and 30 °C, primary screen, LtaS inhibitor project, RN4220, two temperatures; 170,000 tested, 0.53% active; OD600, 20 h, 42 °C; hits give low values; relative growth, % (no concentration beside the values);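 active = growth at 42 °C up to 50% and 20 or more points under that at 30 °C, or under 10% at both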;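 also: 300 nL library stock went into each well; scaled to the means of positive and negative controls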
# GIV-Gai inh = inhibitors of GIV peptide binding to Galpha-i3, primary screen, biochemical, fluorescence polarization, FITC-GIV GBA peptide, rat Galphai3; 90 min; hits give low values; scaled: aluminum fluoride 0%, vehicle 100%; percent of control (FP), % (test concentration not listed); 210,000 tested, 0.42% active;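 active = replicate mean at 85% of control or lower, very high polarization wells dropped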;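 also: wells of about 15 µL received 100 nL stock; the first replicate is given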
# Target sequence (P08753 whole entry, looked up): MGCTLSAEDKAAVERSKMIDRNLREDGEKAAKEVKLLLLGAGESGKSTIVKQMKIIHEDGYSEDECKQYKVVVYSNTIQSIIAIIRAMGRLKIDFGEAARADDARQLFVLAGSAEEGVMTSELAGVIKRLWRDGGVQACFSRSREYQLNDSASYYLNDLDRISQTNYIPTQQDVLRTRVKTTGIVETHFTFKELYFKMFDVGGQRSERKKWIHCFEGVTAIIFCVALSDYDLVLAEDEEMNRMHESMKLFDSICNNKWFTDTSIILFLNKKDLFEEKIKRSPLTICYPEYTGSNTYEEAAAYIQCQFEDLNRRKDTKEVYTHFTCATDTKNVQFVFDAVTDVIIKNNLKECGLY
# Sa growth inh second temp = further read-out of Sa growth inh, marked with its call; relative growth, %; measured here: growth at 30 °C;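 optical density after 20 h as mean of two plates; 100% = untreated growth and lower means inhibition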
# Starred values were filed as active, the others as inactive; / = no result given; & = joins results of further samples. The order is random (roughly 0.8% active in at least one column).
structure	HCMV UL50-53 inh	Sa growth inh	Sa growth inh second temp	GIV-Gai inh
COc1ccc2c(c1)c(=O)c(S(=O)(=O)c1ccc(C)cc1)cn2Cc1ccccc1C	-11	109	91	103
O=C(NCc1cccnc1)C1CCCCC1	1	98	86	101
CCOCCCN1C(=O)c2nc3ccccc3n2CC1(C)C(=O)NC1CCCC1 (stereo not drawn)	-17	/	/	105
O=C(Nc1ccc(N2CCN(CCOc3ccc(Cl)cc3)CC2)c(C(=O)O)c1)c1ccc(F)cc1	/	109	92	100
CCNC(=O)C1CCCN(c2nnc(C)c3c(C)n(-c4ccc(C)cc4)nc23)C1 (stereo not drawn)	/	95	86	114
Cc1ccc(CNC(=O)c2ccc(NC(=O)N3CC(C)Sc4ccccc43)cc2)cc1 (stereo not drawn)	17	/	/	114
COc1ccc(-n2c(SCc3nc(-c4ccc(Cl)cc4)no3)nnc2-c2ccncc2)cc1	3	109	89	105
Cc1ccc(-c2csc3nnc(SCc4ccc5c(c4)OCO5)n23)cc1	-13	94	90	105
Cc1cc(=O)n(CC(=O)N2CCCc3ccccc32)c2c1c(C)nn2-c1cccc(F)c1	/	92	89	103
COc1ccc(NC(=O)C2CC(=O)N(CCc3ccc(OC)c(OC)c3)C(=Nc3ccccc3)S2)cc1 (stereo not drawn)	-23	/	/	105
O=C(NCc1ccc(Br)cc1)C1CCN(c2cc(-c3ccc(F)cc3)ncn2)CC1	-32	/	/	100
Cc1ccc(C2=NNC(=O)CC2)cc1C	14	93	95	105
Cc1ccc(OCC(=O)NCCc2ccccc2)cc1	-11	86	89	96
COC(=O)c1c(NC(=O)c2cc(OC)c(OC)c(OC)c2Br)sc2c1CCC(C)C2 (stereo not drawn)	29	101	102	102
O=c1c2c3c(sc2n(Cc2ccccc2F)c(=O)n1-c1ccc(Cl)cc1)CCCC3	-12	102	89	105
CNC(=O)N1CCCC(c2cccc(C(=O)NC(C)c3ccc(C)cc3C)c2)C1 (stereo not drawn)	-16	/	/	105
CCC1Sc2ccccc2N(CC(=O)NCc2ccc(C)cc2)C1=O (stereo not drawn)	/	125	91	99&104
COc1ccc(NS(=O)(=O)c2ccc3c(c2)NC(=O)CC(=O)N3)cc1OC	6	/	/	103
CC(=O)Nc1cc2c(cc1N)OCCO2	6	102	98	/
COc1ccc(N2CCCC2=O)cc1	-18	/	/	104
CCCCn1cnc2cc(NCc3ccc(OCC)cc3)ccc21	-17	110	63	101
O=C(NCc1ccco1)c1ccc(-c2cc3ccccc3oc2=O)cc1	-83	111	95	110
CN1C(=O)N(C)C2(O)c3ccccc3/C(=N\N=C(N)N)C12O (stereo not drawn)	-27	86	89	98
FC(F)(F)c1ccc(-c2nc(-c3ccc(Cl)cc3)cs2)nc1	-2	102	89	101
COc1cc2ncnc(NCCCn3ccnc3)c2cc1OC	-6	87	98	103
CCOc1ccc(C(=O)Nc2ccc(S(=O)(=O)Nc3nccs3)cc2)cc1OC	-13	/	/	102
CC(C)CC(C(=O)Nc1ccccc1)N1Cc2ccccc2C1=O (stereo not drawn)	-30	105	86	100
CCCc1nc2ccccc2n1CC(=O)O	-7	108	82	/
Fc1ccc(C2=NC(c3cccc(C(F)(F)F)c3)=Nc3ccccc3N2)cc1	-28	112	87	96
COc1cccc(C(=O)CC2(O)C(=O)N(Cc3ccccc3)c3ccccc32)c1 (stereo not drawn)	-5	103	102	105
CCOC(=O)c1noc2ncnc(N3CCc4cc(OC)c(OC)cc4C3C)c12 (stereo not drawn)	-18	86	69	109
Cc1ccc(C2(CCN=Cc3ccccc3)CCOC(C)(C)C2)cc1 (stereo not drawn)	/	88	99	97
COC(=O)Nc1scc(-c2ccccc2)c1C(=O)NCc1ccco1	2	109	109	111
O=C(Cn1cc(S(=O)(=O)Cc2ccc(F)cc2)c2ccccc21)NCC1CCCO1 (stereo not drawn)	3	/	/	109
Cc1nc2c(cnn2-c2ccccc2)c(=O)o1	41	116	96	109
CC1(C)CC(NC(=O)c2ccccc2C(=O)NC2CC(C)(C)NC(C)(C)C2)CC(C)(C)N1	/	117	95	102

# Fetched by structure from the entries so far, 3 records:
structure	HCMV UL50-53 inh	Sa growth inh	Sa growth inh second temp	GIV-Gai inh
Cc1ccc(C2(CCN=Cc3ccccc3)CCOC(C)(C)C2)cc1 (stereo not drawn)	/	88	99	97
COc1cc2ncnc(NCCCn3ccnc3)c2cc1OC	-6	87	98	103
COc1cccc(C(=O)CC2(O)C(=O)N(Cc3ccccc3)c3ccccc32)c1 (stereo not drawn)	-5	103	102	105

# Next section:
structure	HCMV UL50-53 inh	Sa growth inh	Sa growth inh second temp	GIV-Gai inh
CN(C)c1ccc(CNC(=O)C(Cc2ccccc2)NS(=O)(=O)c2ccc3c(c2)oc(=O)n3C)cc1 (stereo not drawn)	-20	110	71	97
Cc1occc1-c1nnc(SC(C)C(=O)NCCC2=CCCCC2)o1 (stereo not drawn)	-27	/	/	99
O=C(CCn1cnc2onc(-c3cccc(F)c3)c2c1=O)NCCc1ccc(Cl)cc1	-2	/	/	108
O=C1CC2CCC(CN1)N2S(=O)(=O)c1ccc(C(=O)O)cc1 (stereo not drawn)	-1	107	95	100
O=S(=O)(Nc1ccc(-c2ccc(N3CCOCC3)nn2)cc1)c1ccccc1F	-54	/	/	103
OC(Cn1cncn1)Cn1cncn1	-5	90	94	/
CCN(C(=O)CSc1nc2ccccc2n1CC(=O)Nc1ccc(F)cc1F)c1ccccc1	/	94	92	103
CC(NCc1nc2cc(Cl)ccc2c(=O)[nH]1)C1CC2CCC1C2 (stereo not drawn)	-7	104	95	/
Cn1c(-c2nnc(SCC(=O)NCC3CCCO3)o2)cc2ccccc21 (stereo not drawn)	-7	/	/	103
O=C(CN1C(=O)c2cccnc2Oc2ccccc21)Nc1ccc(Cl)cc1C(=O)c1ccccc1	-1	/	/	103
O=C(NCCN1CCOCC1)c1cc2sccc2n1Cc1ccc(Cl)cc1	-8	109	90	106
S=C(Nc1ccccc1)N1CCN(c2ccccc2)CC1	-12	118	87	97
Cc1ccc(-c2n[nH]c(=S)[nH]c2=O)cc1	-43	66	98	/
CCCCc1cc2c(=O)c(-c3cc4ccccc4o3)coc2cc1O	-40	76	66	99
O=C(NCCSCc1ccccc1)c1ccc(C2SCC(=O)N2Cc2ccccc2)cc1 (stereo not drawn)	-6	/	/	124
COc1ccc(NC(=O)Cn2cc(S(=O)(=O)c3ccc(C)cc3)c(=O)c3ccccc32)cc1OC	0	114	74	109
CNC(=S)N1CCc2ccccc21	-28	115	90	/
CC1CCCCN1C(=O)Cn1nnc2c(cnn2-c2ccccc2)c1=O (stereo not drawn)	-73	125	86	103
CC1=C(C(=O)N2CCOCC2)C(c2ccccc2OC(C)C)C2=C(CCCC2=O)N1 (stereo not drawn)	6	100	102	103
CCOc1cc(CNC(=O)c2ccc3nc(C(C)C)oc3c2)cc(OCC)c1OCC	/	83	88	98
CCc1nc2oc(C(=O)c3ccc(Cl)cc3)c(N)c2c2c1COC(C)(C)C2	-27	86	87	80*
Cc1ccc(N2CCN(c3c(CN4CCCC4)c(=O)oc4ccccc34)CC2)c(C)c1	-10	123	93	101
CCCCOc1ncnc2ncn(CCCl)c12	-19	/	/	98
NS(=O)(=O)c1ccc(N(S(=O)(=O)c2ccccc2)S(=O)(=O)c2ccccc2)cc1	-46	98	84	102
OCc1csc(=Nc2ccccc2)n1-c1ccccc1	-10	103	88	/
Cc1[nH]c2ccccc2c1C(O)c1ccncc1 (stereo not drawn)	-24	80	87	/
Cc1nnsc1-c1nnc(-c2cccc3ccccc23)o1	-14	93	85	99
Cc1ccc(C2CC(C(F)(F)F)n3nc(C(=O)Nc4c(C)n(C)n(-c5ccccc5)c4=O)cc3N2)cc1 (stereo not drawn)	-18	/	/	91
COC(=O)c1ccccc1SNc1ccccc1C	3	105	92	109
NC(=O)CSc1nc2ccc(Cl)cc2[nH]1	-12	97	98	102
COc1ccc(N2Cc3cccc(C(=O)Nc4ccc(C)cc4)c3C2=O)cc1	-38	101	87	100
COc1ccc(CCNC(=O)c2cccc(Nc3nc4ccccc4nc3-n3nc(C)cc3C)c2)cc1OC	1	96	94	111
CC(=O)C1=C(c2ccc(C)cc2)N(C(C)=O)n2c(nnc2C2CCCCC2)S1	/	135	91	96
CC(C)(C)c1ccc(-c2nc3cc(NC(=O)c4cc5ccccc5o4)ccc3o2)cc1	-47	95	90	108
CCN(CC)c1ccc2cc(C(N)=O)c(=Nc3cccc(C)c3)oc2c1	/	90	82	153
C=C(C)C(=O)Nc1ccc(Oc2ccc(F)cc2)nc1	-2	95	101	105
Cc1ccc(S(=O)(=O)Nc2ccc(-c3ccc(N4CCCCCC4)nn3)cc2)c(C)c1	/	114	102	104
Cc1ccc(-n2c(=O)c3ccc(C(=O)NCc4ccco4)cc3n(Cc3ccc(Cl)cc3)c2=O)cc1	-5	99	78	104
O=C(Cn1cnnn1)Nc1nccs1	-28	100	90	/
COCCCNC(=O)CN1C(=O)C2CCCC2=Nc2ccccc21 (stereo not drawn)	-6	/	/	102
CC(=O)Nc1ccccc1-c1n[nH]c(=S)[nH]c1=O	-2	101	66	106&105
CCC(Oc1ccccc1)C(=O)N1C(=O)c2cccc(N)c2C1=O (stereo not drawn)	-21	110	99	/
CCC(C)C(NC(=O)C1CCC(C)CC1)C(=O)NCc1cccnc1 (stereo not drawn)	-30	91	80	99
COC(=O)c1sccc1S(=O)(=O)N1CCN(c2ccc(Cl)cc2)CC1	/	78	91	103
Cc1cc(NCCO)c2cc(O)ccc2n1	-30	121	93	/
COc1ccc(C(=O)N2c3ccccc3N3C(c4c(C)cc(C)cc4C)=NON23)cc1	/	86	90	99
NNC(=O)c1ccc(OC2OCCOC2Oc2ccc(C(=O)NN)cc2)cc1 (stereo not drawn)	-19	90	83	/
Cn1c(=O)[nH]c(=O)c2c1nc(N1CCN(CC(N)=O)CC1)n2Cc1ccccc1F	4	100	97	99
CC1CCN(c2nnc(NC(=O)c3csc4c3CCCC4)s2)CC1	/	95	89	95
COC(=O)C1CCN(c2ccc(Cl)nn2)CC1	-32	89	87	106
c1csc(-c2nc(CN3CCSCC3)cs2)c1	-62	92	78	102
N#Cc1cc(C#N)c(SCC(=O)NCc2ccco2)nc1N	/	101	79	100
COc1ccc(NC(=O)c2ccc(-n3nc(Sc4ccc(F)cc4)ccc3=O)cc2)cc1	-55	/	/	106
O=S(=O)(/N=c1/cc(-c2ccccc2)ss1)c1ccccc1	-21	118	97	/
O=C(OCc1nnc(-c2ccc(Cl)cc2)o1)C1=NN(c2ccccc2)C(=O)CC1	-14	99	98	/
CC1(C)N=C(c2ccc(F)cc2)C(=O)N1CC(=O)Nc1ccccc1Cl	-11	112	88	107
CC(C)Nc1ccc(-c2nc(-c3ccc(Cl)cc3)no2)nn1	-30	/	/	98
CCCCc1nn2c(=O)cc(COC(=O)c3ccccc3NC(=O)C3CCCCC3)nc2s1	/	88	88	100
O=C(c1cncc(Br)c1)N(c1nccs1)C1CCCCC1	6	104	98	/
COc1ccc(-n2nc(C(=O)NCC(=O)NCc3ccccn3)c3ccccc3c2=O)cc1	-11	101	88	101

# Next part, starting with the last 5 of the part before.
structure	HCMV UL50-53 inh	Sa growth inh	Sa growth inh second temp	GIV-Gai inh
CC1(C)N=C(c2ccc(F)cc2)C(=O)N1CC(=O)Nc1ccccc1Cl	-11	112	88	107
CC(C)Nc1ccc(-c2nc(-c3ccc(Cl)cc3)no2)nn1	-30	/	/	98
CCCCc1nn2c(=O)cc(COC(=O)c3ccccc3NC(=O)C3CCCCC3)nc2s1	/	88	88	100
O=C(c1cncc(Br)c1)N(c1nccs1)C1CCCCC1	6	104	98	/
COc1ccc(-n2nc(C(=O)NCC(=O)NCc3ccccn3)c3ccccc3c2=O)cc1	-11	101	88	101
COc1ccc(-c2cc(C(=O)Oc3ccc(C)cc3)c3ccccc3n2)cc1	22	103	103	103
CC1=CC(=O)CC(C)(C)C1(O)/C=C/C(C)=C/C(=O)O (stereo not drawn)	-18	105	93	105
Cc1cc(Br)cc(C)c1NC(=O)c1cnc2ccccn2c1=O	-34	110	86	102
Cc1ccc(Nc2ccc(N3CCN(C(=O)CCc4ccccc4)CC3)nn2)cc1	-44	93	85	105
Cc1cccc(CSCCNC(=O)CN(c2ccccc2)S(=O)(=O)N(C)C)c1	-5	112	96	111
CCCn1c(CN2CCN(C)CC2)nc2cc(NC(=O)C3CCCCC3)ccc21	-17	/	/	104
NC(N)=N/N=C/c1ccc(O)c(Cl)c1	-70	93	86	106
Cc1cc(C)c(NC(=S)NCCO)c(C)c1	-27	92	85	106
CCOc1ccc(CNC(=O)CS(=O)(=O)c2cccc3nsnc23)cc1	/	94	97	114

# Screening data from PubChem BioAssay.
